# Ecoli growth – blocks Escherichia coli growth. OD600 absorbance (no concentration beside the values). OD600, 23 h; active compounds read low. 330,000 tested, 0.21% active;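 active = OD600 absorbance below the run mean of sample wells minus 3.6 SD, in any replicate, cut at about 0.56 in these data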;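 note: stock transfer was 300 nL into about 60 µL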
# UCH37 DUB inh – human UCH37 deubiquitinating enzyme inhibition. 330,000 tested, 0.33% active. inhibition, % (test concentration not listed). purified proteasome/UCH37, Ub-AMC cleavage fluorescence;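 active = mean of two replicates above 20%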;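 note: 0% = compound-free wells with enzyme and 100% = wells lacking proteasome; stock transfer was 100 nL into about 20 µL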
# Target sequence (Q9Y5K5 whole entry, looked up): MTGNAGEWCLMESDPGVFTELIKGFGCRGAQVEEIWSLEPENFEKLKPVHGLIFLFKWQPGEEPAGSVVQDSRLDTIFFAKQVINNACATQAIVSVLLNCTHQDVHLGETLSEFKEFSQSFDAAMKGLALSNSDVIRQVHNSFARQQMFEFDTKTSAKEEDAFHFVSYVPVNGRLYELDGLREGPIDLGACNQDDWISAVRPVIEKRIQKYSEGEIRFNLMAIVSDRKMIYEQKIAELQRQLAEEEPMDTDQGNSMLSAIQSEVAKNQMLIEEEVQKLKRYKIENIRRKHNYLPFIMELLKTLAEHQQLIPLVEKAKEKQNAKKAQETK
#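 Assay system: Proteasome-bound UCH37. Buffer or medium: pH 7.4 Tris-HCl (50 mM) with ovalbumin, ATP-MgCl2, DTT. Incubation: 30 min preincubation with enzyme, 25 min cleavage at room temperature. Measured by: fluorescence, ex 355 nm, em 460 nm. Read-out basis: percent inhibition. Control set: wells without proteasome as full block, compound-free enzyme plus substrate as uninhibited.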
# * hit, by the source's call.
# Preview (two entries):
Structure,Ecoli growth,UCH37 DUB inh
O=C(NN=Cc1ccc(O)c(O)c1)c1cccc(S(=O)(=O)N2CCCC2)c1,0.66,9.8
CCc1ccc[n+](-c2[nH]c(=O)sc2C=N/N=C(\[O-])CCn2c3ccccc3c3ccccc32)c1,0.68,10

# The whole of this part, previewed entries included:
Structure,Ecoli growth,UCH37 DUB inh
O=C(NN=Cc1ccc(O)c(O)c1)c1cccc(S(=O)(=O)N2CCCC2)c1,0.66,9.8
CCc1ccc[n+](-c2[nH]c(=O)sc2C=N/N=C(\[O-])CCn2c3ccccc3c3ccccc32)c1,0.68,10
O=C(Cc1cccs1)NN=Cc1ccccn1,0.69,1.9
COc1ccc(C(C)=NNC(=O)CNC(=O)c2ccncc2)c(OC)c1,0.57,1.5
O=C(CSc1nc2ccccc2s1)NN=Cc1ccccc1C(=O)O,0.67,3.8
COC(=O)COc1ccc(C=NNS(=O)(=O)c2ccccc2)cc1,0.63,2.6
CCOC(=O)C(=NNc1cccc(C(F)(F)F)c1)N1CCOCC1,0.65,5.3
O=S(=O)(c1cnccc1N1CCN(N=Cc2ccc(Cl)cc2)CC1)N1CCCCC1,0.83,4.0
CN(C)C=Nc1ncn(-c2ncc(C(F)(F)F)cc2Cl)n1,0.69,1.3
CCc1ccc(C(C)=NNc2cc(Cl)nc(C)n2)cc1,0.74,7.6
CC(C)OCCCNC(=O)C(=O)NN=Cc1ccc(OCc2ccccc2)cc1,0.72,10
CCC(=O)N(C)CCc1cc2c(c(OC)c1C=NNc1ccc(C(=O)O)cc1)OCO2,0.64,7.7
CC1S/C(=N/N=Cc2ccco2)NC1=O (centres undefined),0.74,13
COc1cccc(C=NNC(=O)c2csc(-n3nc(C)cc3C(F)(F)F)n2)c1,0.74,-6.1
O=C(CN(Cc1ccccc1)S(=O)(=O)c1ccccc1)NN=Cc1ccccc1C(=O)O,0.66,3.4
Cc1ccccc1SCC(=O)NN=Cc1ccc(F)cc1,0.68,1.3
COc1cccc2cc(C(=O)Nc3cc(C)cc(C)c3)c(=NNS(=O)(=O)c3ccccc3)oc12,0.69,2.3
C=CCOc1ccccc1C=c1sc2nc(-c3oc4ccccc4c3C)nn2c1=O,0.67,2.1
Cc1ccc(C(=O)ON=Cc2c(N3CCOCC3)n(C)c3ccccc23)cc1,0.68,-15
CC(=NNC(=O)c1ccc(O)cc1)c1ccc2c(c1)Nc1ccccc1S2,0.6,-1.1
CCOc1ccc(S(=O)(=O)N(CC(=O)NN=Cc2cccs2)c2ccc(C)cc2)cc1,0.7,3.1
Cc1ccc(NCC(=O)NN=Cc2cc(O)ccc2[N+](=O)[O-])cc1,0.63,9.7
O=C(NN=C/C=C/c1ccco1)c1cccs1,0.64,11
C/C(C=NNC(=O)c1cc(-c2ccc(Cl)cc2)nc2ccccc12)=C\c1ccco1,0.7,0.2
COc1ccc(CCNC(=O)CC(C)=NNC(=O)c2ccc(Cl)cc2Cl)cc1OC,0.66,3.8
Cc1ccc(NC(=O)CSc2nnc(-c3ccc(S(=O)(=O)N4CCCC4)cc3)o2)cc1C,0.7,-2.2
COc1cccc(C=NN2CCOCC2)c1O,0.71,6.1
COC(=O)c1ccc(COc2ccc(C=NN3CCN(C)CC3)cc2)cc1,0.67,-0.1
CCOc1ccc(Cl)cc1C=NNC(=O)CNC(=O)c1ccccc1,0.61,-5.6
CC(C)ON=C1C(=O)N(c2ccccc2)c2ccccc21,0.66,2.1
Cc1ccc(NN=C(C#N)C(=N)N2CCCCCC2)cc1,0.63,3.2
Oc1c(C=Nc2ccccn2)sc2ccccc12,0.68,4.6
COc1ccc(O)c(C=NNC(=S)Nc2cccc(S(=O)(=O)N(C)C)c2)c1,0.66,-65
COc1ccccc1/C=C/C=Nn1c(-c2cc(C)[nH]n2)n[nH]c1=S,0.65,8.7
COc1cccc(C=NNC(=O)C2C(=O)NCC2c2ccccc2)c1O (centres undefined),0.81,4.0
CCOc1ccc(S(=O)(=O)NN=C2CCCC(=O)C2)cc1,0.74,1.4
Cc1ccc(Nc2nc(NN=Cc3c[nH]c4ccccc34)nc(N3CCOCC3)n2)cc1,0.66,-0.3
CCOc1cc(C=NNC(=O)CN2CCOCC2)ccc1OCc1ccc(F)cc1,0.69,4.3
CC(C)c1ccc(C=NNC(=O)C(=O)NCCCN2CCOCC2)cc1,0.68,3.3
Fc1cccc(C=NNC(=S)Nc2ccccc2Cl)c1,0.72,7.1
FC(F)Oc1ccccc1C=Nn1cnc2ccccc21,0.64,8.0
O=C(NCc1ccccc1)c1ccc(C=NO)nc1,0.72,0.9
CC(Cc1ccccc1)=NNC(=O)CNC(=O)c1ccc(F)cc1,0.64,1.5
CNC(=S)N=CNOCc1c(Cl)cccc1Cl,0.69,2.6
Cc1ccc(S(=O)(=O)N(CC(=O)NN=Cc2cccc(C)c2)c2cccc3cccnc23)cc1,0.72,0.6
C(=Nc1ncnc2sccc12)NOCc1ccccc1,0.79,0.4
COc1ccc(C=NNC(=O)c2nnn(-c3nonc3N)c2-c2cccs2)c(OC)c1,0.65,-97
COCCn1c(COc2ccccc2)nnc1SCC(N)=O,0.67,-2.6
O=C(NN=Cc1ccc(-c2cccc(Cl)c2)o1)C(=O)NC1CCCC1,0.71,-77
COc1ccccc1C=NNC(=O)c1csc(C)c1C,0.68,4.8
CCn1c(SCC(=O)NN=Cc2ccccc2OCC(=O)O)nnc1-c1ccc(OC)cc1,0.67,2.7
O=S(=O)(NN=Cc1cn(Cc2ccccc2)c2ccccc12)c1ccccc1,0.69,3.1
COc1ccccc1/C=C/C=NNC(=O)Cc1cccn1C,0.7,2.3
O=C1CN(c2cc(Cl)cc(Cl)c2)C(=O)CN1N=Cc1cccnc1,0.68,3.3
COc1cc(C=Nn2cnc3c(sc4nc(C)cc(C)c43)c2=O)ccc1O,0.64,2.2
CCc1cc(C(=O)NN=Cc2ccc(O)cc2)c2ccccc2n1,0.65,5.6
Clc1cccc(-c2ccc(C=Nn3cnnc3)o2)c1,0.6,4.7
Cc1cc(C)c2c(c1)C(=NNS(=O)(=O)c1ccccc1)CCC2,0.75,2.4
Oc1c(Br)cccc1C=NNc1c(F)c(F)c(F)c(F)c1F,0.69,3.9
Cc1cc(C)cc(OC(C)c2ccnc3nc(N=CN(C)C)nn23)c1 (centres undefined),0.73,-71

# Carrying on.
Structure,Ecoli growth,UCH37 DUB inh
NC(=S)NN=C1CC(n2nnnc2-c2ccccc2Cl)C2COC1O2 (centres undefined),0.71,7.3
CCc1ccc(C=NNC(=O)c2cc(C3CC3)nc3ccc(Br)cc23)s1,0.72,-3.2
CCOc1cc(C=NNC(=O)c2ccccc2-n2cccc2)ccc1O,0.67,4.6
O=C(O)c1ccc(C=NNC(=O)C2CC2(c2ccccc2)c2ccccc2)cc1 (centres undefined),0.69,1.4
O=C(CC1S/C(=N/N=Cc2ccco2)NC1=O)Nc1ccccc1 (centres undefined),0.73,6.1
CC1(C)Cc2c(sc(N=CN3CCCCCC3)c2C#N)C(C)(C)N1,0.7,1.4
NC(=NOC(=O)c1ccc2c(c1)OCO2)c1cccc([N+](=O)[O-])c1,0.74,1.9
COc1ccccc1OCc1ccc(C(=O)NN=Cc2ccco2)cc1,0.6,2.9
COC(=O)NN=Cc1ccccc1OC/C=C/c1ccccc1,0.71,1.3
CCOc1ccccc1C(=O)NN=Cc1coc2ccc(Cl)cc2c1=O,0.66,-16
COC(=O)NN=Cc1cccc(OC(=O)c2ccc3c(c2)OCO3)c1,0.69,1.6
Cc1ccc(C=NN(C)S(=O)(=O)c2ccc(C)cc2)cc1,0.61,0.3
CC(CC(=O)NCc1ccco1)=NNC(=O)COc1ccc(Cl)cc1Cl,0.7,5.4
COc1ccc(C=Nn2cnc3c([nH]c4ccc(F)cc43)c2=O)cc1CSc1ccccn1,0.67,-2.3
O=C(NN=Cc1ccc2c(c1)OCO2)c1cccs1,0.69,8.8

# (more compounds)
mol | Ecoli growth | UCH37 DUB inh
CCCCc1ccc(C(C)=NNC(=O)C2CCCC2)cc1 | 0.73 | 3.2
Nc1nonc1-n1nnc(C(=O)NN=Cc2ccccc2F)c1CN1CCOCC1 | 0.7 | 0.1
CC(=NO)C(=O)C(CN1CCCCC1)CN1CCCCC1 | 0.69 | 0.7
NC(=O)NC(=O)CC1S/C(=N/N=Cc2ccccc2)NC1=O (centres undefined) | 0.71 | 7.4
CCCCC(=O)NN=Cc1ccc(Sc2cccc3cccnc23)o1 | 0.68 | 1.2
O=C(C=NNC(=O)c1ccc(Cl)cc1Cl)c1ccccc1 | 0.71 | 1.4
CCNC(=S)NN=Cc1cn(Cc2ccc(F)cc2)c2ccccc12 | 0.72 | 0.4
COc1cc(OC)c(OC)cc1C=NN(C)c1ccccc1 | 0.68 | 1.0
O=C(ON=Cc1ccc(N2CCCCC2)c([N+](=O)[O-])c1)c1c(F)cccc1F | 0.71 | 1.5
Clc1cccc(Cl)c1C=NNc1nccs1 | 0.7 | 7.1

# Grouped by structure, those above containing a cyano group (two)
mol | Ecoli growth | UCH37 DUB inh
Cc1ccc(NN=C(C#N)C(=N)N2CCCCCC2)cc1 | 0.63 | 3.2
CC1(C)Cc2c(sc(N=CN3CCCCCC3)c2C#N)C(C)(C)N1 | 0.7 | 1.4

# Four entries from above, arranged by the number in Ecoli growth, falling.
mol | Ecoli growth | UCH37 DUB inh
O=C(ON=Cc1ccc(N2CCCCC2)c([N+](=O)[O-])c1)c1c(F)cccc1F | 0.71 | 1.5
Clc1cccc(Cl)c1C=NNc1nccs1 | 0.7 | 7.1
CC(=NO)C(=O)C(CN1CCCCC1)CN1CCCCC1 | 0.69 | 0.7
COc1cc(OC)c(OC)cc1C=NN(C)c1ccccc1 | 0.68 | 1.0

# Going on with the list.
mol | Ecoli growth | UCH37 DUB inh
CC(=NNC(=O)c1ccncc1)c1cccc(NC(=O)c2ccc(Cl)s2)c1 | 0.61 | 0.9
COc1ccc(NC(=O)C(=O)NN=C(C)CC(=O)Nc2ccccn2)c(OC)c1 | 0.66 | 4.2
Cc1ccc(S(=O)(=O)Nc2ccccc2C=Nc2nc3ccccc3n2C)cc1 | 0.62 | 4.5
Cc1nc2c(cc1C(=O)NN=Cc1ccc(O)c(O)c1)c(=O)n(C)c(=O)n2C | 0.71 | 1.9
CCc1nnc(NN=Cc2cc(Br)c(O)cc2O)n1N | 0.69 | 16
Cc1cc(-c2ccc(C=Nn3cnnc3)o2)c([N+](=O)[O-])cc1C | 0.72 | 9.3
Cc1ccc(C2=[N+]([O-])C3(CCCCCC3=NO)N(O)C2(C)C)o1 (centres undefined) | 0.77 | 5.8
COc1ccc(C=Nn2c(C)cc(C)c(C(N)=O)c2=O)cc1 | 0.66 | 3.5
COc1ccc(C=NNC(=O)c2cc(-c3ccccc3)nc3ccccc23)c(OC)c1 | 0.66 | -9.5
Nc1nonc1-n1nnc(C(=O)NN=Cc2ccc(Br)cc2)c1CN1CCOCC1 | 0.7 | 5.1
Cc1nc2c(C)cccc2cc1C(=O)NN=Cc1ccc(O)cc1 | 0.67 | 2.1
Cc1cccc(C=NNC(=O)c2cc3c(s2)-c2ccccc2CC3)c1 | 0.81 | -107
Cc1nc(N)nc(NN=Cc2ccccc2)n1 | 0.68 | 5.2
CC(CC(=O)Nc1ccc2c(c1)OCCO2)=NNC(=O)COc1ccccc1 | 0.69 | -1.0
COc1cc(C=NNC(=O)c2cc(-c3ccccc3)nc3ccccc23)ccc1O | 0.66 | 4.2
COc1ccc(CSCC(=O)NN=Cc2ccc(OCC(=O)NCc3ccco3)cc2)cc1 | 0.75 | -1.8
Cc1ccc(Sc2ccc(C=NO)cc2[N+](=O)[O-])cc1 | 0.72 | 0.4
COc1cc(C=NNC(=O)CCn2nnc3ccccc32)ccc1O | 0.68 | -1.1
CN1c2ccsc2C(=NNc2ccc(F)cc2)CS1(=O)=O | 0.57 | 1.9
C=C(C)C1CC=C(C)C(=NNC(=S)Nc2ccccc2)C1 (centres undefined) | 0.65 | 2.3
O=C(NN=Cc1cn(-c2ccccc2)nc1-c1ccc2c(c1)OCCO2)c1ccncc1 | 0.69 | -8.8
CCN(CC)c1ccc(C=NNC(=O)c2ccccn2)cc1 | 0.7 | 5.3
COc1ccc(C=NN=C2SC(CC(=O)O)C(=O)N2c2ccc(O)cc2)cc1OC (centres undefined) | 0.66 | 14
O=C(NN=Cc1ccco1)c1cc(-c2cccc(Br)c2)nc2ccccc12 | 0.71 | -11
Cc1onc(-c2ccccc2)c1C(=O)NN=Cc1ccc([N+](=O)[O-])c(O)c1 | 0.7 | 10
CC(C)C(=NNC(=O)Nc1ccccc1)c1ccccc1 | 0.67 | 1.2
O=C(NN=Cc1ccc(OCC(=O)N2CCCCC2)cc1)c1ccccc1 | 0.64 | 3.8
C=CCC1CCCC(=NNS(=O)(=O)c2ccc(C)cc2)C1 (centres undefined) | 0.72 | 1.5
Cn1cccc1C=NNC(=O)c1cc2ccccc2cc1O | 0.67 | 4.4
Cc1ccc(C)c(C=NNc2ccccn2)c1 | 0.7 | 4.0
COc1ccc(-c2[nH]ncc2C=NNC(=O)c2ccc(Br)o2)cc1OC | 0.64 | 0.4
CC(C)NC(=S)NN=C1CCCc2ccccc21 | 0.72 | 5.8
Cn1cccc1C=Nn1c(-c2ccc(C(C)(C)C)cc2)n[nH]c1=S | 0.74 | 0.1
O=C(NN=Cc1ccc([N+](=O)[O-])cc1)c1cc2ccccc2o1 | 0.68 | 6.3
Cc1cc(C)nc(SCC(=O)NN=C/C=C/c2ccccc2)n1 | 0.74 | 3.1
O=C(NN=Cc1sc(=O)[nH]c1-[n+]1ccccc1)c1ccccc1[O-] | 0.68 | 20*
Cc1nn(-c2ccccc2)c(C)c1C=NNC(=O)c1cc(-c2ccccc2)n[nH]1 | 0.67 | 1.4
O=C(CNc1cccc2ccccc12)NN=C/C(Br)=C/c1ccccc1 | 0.74 | -4.1

# Compound activity: PubChem BioAssay, ICCB-Longwood Screening Facility, Harvard Medical School

# This is a subset (hit frequency here may not be typical).
